# AF4-AF9 inh = inhibitors of AF4 peptide binding to AF9, primary screen, biochemical, AlphaScreen, biotin-AF4 peptide, FLAG-AF9, single point. inhibition, % at 10 µM. hit rate 0.47% among 350,000;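 active = every replicate reaching a set inhibition limit, whatever the replicate mean, cut at about 25% in these data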;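 also: 0% = plate neutral control median and 100% = total signal loss; the record names both 10 and 1 µM as test concentration; the first replicate is given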
# Target sequence (P42568 whole entry, looked up): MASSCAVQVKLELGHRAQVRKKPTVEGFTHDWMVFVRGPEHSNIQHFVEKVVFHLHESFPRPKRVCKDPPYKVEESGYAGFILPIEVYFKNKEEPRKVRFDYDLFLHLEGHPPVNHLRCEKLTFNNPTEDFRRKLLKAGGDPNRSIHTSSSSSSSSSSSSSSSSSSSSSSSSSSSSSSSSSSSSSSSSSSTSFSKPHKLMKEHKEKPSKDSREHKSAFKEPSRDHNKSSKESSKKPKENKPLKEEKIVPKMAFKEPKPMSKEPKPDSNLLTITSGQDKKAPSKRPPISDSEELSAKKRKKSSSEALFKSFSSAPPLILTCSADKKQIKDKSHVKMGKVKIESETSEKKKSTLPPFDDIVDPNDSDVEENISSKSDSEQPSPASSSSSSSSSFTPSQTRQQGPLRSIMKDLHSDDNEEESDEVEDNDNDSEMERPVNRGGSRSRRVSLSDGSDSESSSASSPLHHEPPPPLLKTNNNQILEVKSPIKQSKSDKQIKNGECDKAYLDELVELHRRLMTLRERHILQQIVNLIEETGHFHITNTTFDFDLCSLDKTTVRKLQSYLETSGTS
# Active calls of the source: *; & = joins results of further samples. The list is partial; rates above refer to the full screens.
# Preview (2 entries):
SMILES,AF4-AF9 inh
CC(C)NC(=O)Nc1ccc2c(c1)CC(=O)N([C@@H](C)CO)C[C@H](C)[C@H](CN(C)C(=O)NC1CCCCC1)O2,-2.3
CN(C)C(=O)C[C@H]1CC[C@@H]2[C@@H](COc3ccc(NC(=O)C4CCCC4)cc3C(=O)N2C)O1,-2.9

# The list itself, from the first entry:
SMILES,AF4-AF9 inh
CC(C)NC(=O)Nc1ccc2c(c1)CC(=O)N([C@@H](C)CO)C[C@H](C)[C@H](CN(C)C(=O)NC1CCCCC1)O2,-2.3
CN(C)C(=O)C[C@H]1CC[C@@H]2[C@@H](COc3ccc(NC(=O)C4CCCC4)cc3C(=O)N2C)O1,-2.9
O=C(Cc1ccccc1)N1CC(=O)N2[C@H](C1)[C@H](c1ccc(-c3cccc(F)c3)cc1)[C@@H]2CO,0.8
CC(C)NC(=O)Nc1cccc2c1O[C@H](CN(C)S(=O)(=O)c1ccc(F)cc1)[C@@H](C)CN([C@@H](C)CO)C2=O,-7.5
O=C(Cc1ccccn1)N1CC(=O)N2[C@H](CO)[C@H](c3ccc(-c4ccc(F)cc4)cc3)[C@@H]2C1,3.0
O=C(C1CCC1)N1CC(=O)N2[C@H](CO)[C@@H](c3ccc(-c4ccccc4F)cc3)[C@@H]2C1,0.1
COc1cccc(CN2[C@H](CO)[C@H](c3ccccc3)C23CN(C(=O)C2CCCC2)C3)c1,2.4
CC(C)C#Cc1ccc([C@@H]2[C@H](CO)N3C(=O)CN(C(=O)c4ccccn4)C[C@@H]23)cc1,1.3
COCC#Cc1ccc(CC[C@H]2O[C@H]3CC[C@H](CO)O[C@H]3C[C@@H]2n2cc(C3CC3)nn2)cc1,-0.2
COc1cccc(-c2ccc(C3[C@@H]4CN(C(=O)c5ccc(F)cc5)C[C@H]3N4)cc2)c1 (some centres not stated),4.1
O=C(c1cccnc1)N1CC(=O)N2[C@@H](CO)[C@@H](c3ccc(/C=C/c4ccccc4)cc3)[C@@H]2C1,2.1
COc1ccc2c3c([nH]c2c1)[C@H](CO)N(Cc1ccc(Cl)cc1)CC31CCN(Cc2nccs2)CC1,7.7
O=S(=O)(c1cccc(F)c1)N1[C@@H]2CNC[C@H]1C2c1ccc(-c2cccnc2)cc1 (some centres not stated),-1.4&-1.9
Cc1cccc(-c2ccc([C@@H]3[C@@H](CO)N4C(=O)CN(C(=O)Cc5ccccn5)C[C@@H]34)cc2)c1,-0.4
CC(C)CC#Cc1ccc([C@@H]2[C@H]3CN(C(=O)NC4CCCC4)CC(=O)N3[C@H]2CO)cc1,3.6
CCCC#Cc1ccc2c(c1)[C@H]1[C@H](CCN1S(=O)(=O)c1cn(C)cn1)[C@H](CO)N2,6.1
CO[C@@H]1CN(C)C(=O)c2ccc(NS(C)(=O)=O)cc2OC[C@@H](C)N(Cc2cccnc2)C[C@H]1C,0.5
Cc1noc(C)c1NC(=O)Nc1ccc2c(c1)C(=O)N([C@H](C)CO)C[C@@H](C)[C@@H](CN(C)S(=O)(=O)c1ccccc1)OCCCC[C@@H](C)O2,2.3
COc1ccc2c3c(n(C)c2c1)[C@@H](CO)N(CC1CC1)CC31CN(C(=O)c2ccc(F)cc2)C1,7.4
O=C(C[C@@H]1C=C[C@@H](NC(=O)C2CCOCC2)[C@H](CO)O1)Nc1nccs1,-3.4

# 6 structures out of the list, arranged by length of the SMILES, high to low.
SMILES,AF4-AF9 inh
O=C(c1cccnc1)N1CC(=O)N2[C@@H](CO)[C@@H](c3ccc(/C=C/c4ccccc4)cc3)[C@@H]2C1,2.1
CO[C@@H]1CN(C)C(=O)c2ccc(NS(C)(=O)=O)cc2OC[C@@H](C)N(Cc2cccnc2)C[C@H]1C,0.5
CC(C)CC#Cc1ccc([C@@H]2[C@H]3CN(C(=O)NC4CCCC4)CC(=O)N3[C@H]2CO)cc1,3.6
CCCC#Cc1ccc2c(c1)[C@H]1[C@H](CCN1S(=O)(=O)c1cn(C)cn1)[C@H](CO)N2,6.1
O=S(=O)(c1cccc(F)c1)N1[C@@H]2CNC[C@H]1C2c1ccc(-c2cccnc2)cc1 (some centres not stated),-1.4&-1.9
O=C(C[C@@H]1C=C[C@@H](NC(=O)C2CCOCC2)[C@H](CO)O1)Nc1nccs1,-3.4

# (next part)
SMILES,AF4-AF9 inh
CCC(=O)Nc1ccc2c(c1)OC[C@H](C)N(C(=O)c1cnccn1)C[C@@H](C)[C@H](OC)CN(C)C2=O,0.4
CCCC#Cc1ccc([C@@H]2[C@H]3CN(C(=O)NC4CCCC4)CC(=O)N3[C@H]2CO)cc1,2.6
C[C@@H]1CN([C@H](C)CO)S(=O)(=O)c2ccc(C#Cc3ccccc3F)cc2O[C@H]1CN(C)CC1CCOCC1,1.2
O=C(C1CC1)N1CC(=O)N2[C@H](CO)[C@@H](c3ccc(-c4cccnc4)cc3)[C@@H]2C1,-2.8
C[C@@H]1CCCCO[C@@H](CN(C)C(=O)NC2CCCCC2)[C@@H](C)CN([C@@H](C)CO)C(=O)c2cc(N(C)C)ccc2O1,1.0
CO[C@H]1CN(C)C(=O)c2cc(NS(=O)(=O)c3ccc(C)cc3)ccc2OC[C@H](C)N(Cc2nccs2)C[C@H]1C,1.9
C[C@@H]1CN([C@H](C)CO)C(=O)Cc2cc(NS(C)(=O)=O)ccc2O[C@H]1CN(C)CC1CCCCC1,-1.9
Cc1cccc(-c2ccc([C@H]3[C@@H](CO)N4C(=O)CN(C(=O)c5ccccc5)C[C@@H]34)cc2)c1,-0.2
O=C1CN(S(=O)(=O)Cc2ccccc2)C[C@@H]2[C@@H](c3ccc(C#CC4CC4)cc3)[C@@H](CO)N12,3.0
CCC(=O)N1CC2(C1)CN(C(=O)c1cnccn1)[C@@H](CO)c1c2c2ccc(OC)cc2n1C,-7.6
CCCC#Cc1ccc([C@@H]2[C@H](CO)N3C(=O)CN(C(=O)c4ccncc4)C[C@@H]23)cc1,-2.7
CCCN1[C@@H]2c3ccc(-c4cccc(C(=O)N(C)C)c4)c(=O)n3C[C@@H]2[C@@H](CO)[C@@H]1C(=O)OC,-2.0
O=C(C[C@H]1CC[C@@H]2[C@H](COC[C@@H](O)CN2CC2CCCC2)O1)NCC1CC1,-0.9
CC(C)NC(=O)N[C@@H]1C[C@@H]2O[C@@H](CO)CC[C@@H]2O[C@@H]1CCc1ccc(-c2ccc(F)cc2)cc1,-3.8
O=C(NCC(F)(F)F)[C@@H]1[C@@H](CO)[C@@H]2Cn3c(cccc3=O)[C@H]1N2CCC(F)(F)F,-3.4
O=C(c1cccc(F)c1)N1CC[C@H]2[C@H](CO)Nc3ccc(C#Cc4ccccc4)cc3[C@H]21,4.3
CNC[C@@H]1Oc2cc(-c3ccc(OC)cc3)ccc2S(=O)(=O)N([C@@H](C)CO)C[C@H]1C,0.7
O=C(NCCN1CCCCC1)[C@@H]1[C@@H](CO)[C@@H]2Cn3c(cccc3=O)[C@H]1N2C(=O)C1CCCCC1,2.3
O=C(Nc1ccc(F)cc1)N1CC(=O)N2[C@H](CO)[C@H](c3ccc(C#Cc4ccc(F)cc4)cc3)[C@@H]2C1,1.8
CN(C)c1ccc2c(c1)[C@H]1C[C@@H](CC(=O)N3CCCCC3)O[C@@H](CO)[C@H]1O2,-0.5
COCCNC(=O)C[C@@H]1CC[C@H]2[C@@H](COc3ccc(NC(=O)Nc4cccc(F)c4)cc3C(=O)N2C)O1,-1.5
COCC(=O)N1[C@H](C#N)[C@@H](c2ccccc2C2=CCCCC2)[C@H]1CO,-1.1
C[C@H](CO)N1C[C@H](C)[C@@H](CN(C)S(C)(=O)=O)Oc2ccc(NC(=O)CCCN(C)C)cc2C1=O,-2.6
C/C=C/c1ccc2c(c1)O[C@@H](CN(C)Cc1ccc(C(=O)O)cc1)[C@H](C)CN([C@@H](C)CO)S2(=O)=O,-1.7
COc1ccc(-c2ccc3c(c2)[C@@H]2[C@@H](CCN2C(=O)NC2CCCC2)[C@@H](CO)N3C)cc1,16
CCNC(=O)[C@@H]1[C@@H](CO)[C@@H]2Cn3c(ccc(C4=CCCC4)c3=O)[C@@H]2N1C(=O)CC1CC1,-0.8
COc1cccc(C#Cc2ccc([C@H]3[C@@H](CO)N4C(=O)CN(C(=O)C5CC5)C[C@H]34)cc2)c1,-2.2
O=C(Cc1cccnc1)N1CC(=O)N2[C@H](CO)[C@H](c3ccc(C#CC4CC4)cc3)[C@H]2C1,-1.7
CN(C)CC(=O)N1[C@H](CO)[C@@H](c2ccccc2)C12CN(CCC(F)(F)F)C2,0.8
O=C(Nc1ccc(F)cc1)N1CC(=O)N2[C@@H](CO)[C@@H](c3ccc(C#Cc4cccnc4)cc3)[C@@H]2C1,-0.8
COc1cccc(CN2[C@@H]3CNC[C@H]2C3c2ccc(-c3cccc(C#N)c3)cc2)c1 (some centres not stated),-6.8&-3.7
O=C(NC1CCCCC1)[C@H]1[C@H](CO)[C@H]2Cn3c(cccc3=O)[C@@H]1N2CC1CCCCC1,-4.1
N#C[C@H]1[C@@H](c2ccccc2C2=CCCC2)[C@@H](CO)N1C(=O)NC1CCCCC1,1.5
C[C@H]1CN([C@@H](C)CO)C(=O)Cc2cc(N(C)C)ccc2O[C@@H]1CN(C)C(=O)Nc1ccc(C(F)(F)F)cc1,-1.0
C/C=C/c1ccccc1[C@@H]1[C@@H](C#N)N(C(=O)c2cccnc2)[C@@H]1CO,1.0
Cc1ccc(S(=O)(=O)Nc2cccc3c2O[C@H](CN(C)S(=O)(=O)c2cn(C)cn2)[C@H](C)CN([C@H](C)CO)C3=O)cc1,-1.4
COc1cccc(CN2CC3(CN(C)C3)c3c([nH]c4cc(OC)ccc34)[C@@H]2CO)c1,14
CC(=O)N1CC(=O)N2[C@@H](CO)[C@H](c3ccc(-c4ccc(C(=O)N(C)C)cc4)cc3)[C@@H]2C1,-7.9
O=C(C1CCOCC1)N1CC(=O)N2[C@H](CO)[C@@H](c3ccc(C#CC4CC4)cc3)[C@H]2C1,-0.4
O=C(O)[C@H]1[C@H](CO)[C@H]2Cn3c(ccc(C4=CCCCC4)c3=O)[C@H]2N1C(=O)Cc1cccnc1,0.7
COc1ccccc1CN(C)C[C@H]1OCc2ccccc2-c2c(n(C)c3ccccc23)C(=O)N([C@@H](C)CO)C[C@@H]1C,10
O=C(C[C@H]1CC[C@H]2[C@@H](COC[C@H](O)CN2CC2CCCC2)O1)NCC1CC1,-3.6
N#C[C@H]1[C@@H](c2ccccc2-c2ccc(F)cc2)[C@@H](CO)N1C(=O)NC1CCCC1,-0.8
Cc1noc(C)c1NC(=O)N(C)C[C@@H]1OCCCC[C@@H](C)Oc2ccc(NS(=O)(=O)c3ccc(Cl)cc3)cc2C(=O)N([C@H](C)CO)C[C@H]1C,-10
Cc1ccc(CN2CC(=O)N3[C@H](CO)[C@@H](c4ccc(-c5ccccc5F)cc4)[C@H]3C2)cc1,2.9
C[C@H]1CCCCO[C@H](CN(C)Cc2ccccc2)[C@@H](C)CN([C@@H](C)CO)C(=O)c2cc(NS(=O)(=O)c3ccc(Cl)cc3)ccc2O1,7.4
Cc1ccc(S(=O)(=O)N(C)C[C@@H]2OCCCC[C@H](C)Oc3ccc(NC(=O)c4ccncc4)cc3C(=O)N([C@H](C)CO)C[C@@H]2C)cc1,2.1
C[C@@H]1CN([C@H](C)CO)C(=O)c2cc(-c3cccc(F)c3)cnc2O[C@H]1CN(C)Cc1cccnc1,-0.5
COc1ccc2c3c([nH]c2c1)[C@@H](CO)N(Cc1ccncc1)CC31CCN(CC2CCOCC2)CC1,5.8
COc1ccccc1-c1ccc([C@H]2[C@@H](CO)N(C(C)=O)C23CN(C(C)=O)C3)cc1,-2.3
# Next compounds follow.
SMILES,AF4-AF9 inh
CCCNC(=O)N[C@H]1CC[C@H](CC(=O)NC2CCC2)O[C@@H]1CO,3.2
C[C@@H]1CN([C@@H](C)CO)C(=O)c2cc(NC(=O)Nc3ccc(F)cc3)ccc2O[C@@H](C)CCCCO[C@@H]1CN(C)Cc1ccc(C(=O)O)cc1,1.9
CC(C)CC#Cc1ccc([C@H]2[C@H]3CN(C(=O)Nc4ccc(F)cc4)CC(=O)N3[C@H]2CO)cc1,2.6
O=C(C1CCCC1)N1C[C@@H]2N[C@H](C1)C2c1ccc(/C=C/c2ccccc2)cc1 (some centres not stated),10.0&15
Cc1ccccc1-c1ccc(C2[C@@H]3CN(S(=O)(=O)c4cn(C)cn4)C[C@H]2N3)cc1 (some centres not stated),-4.4&-5.9
O=C1CN(Cc2ccccc2)C[C@H]2[C@@H](c3ccc(-c4cccnc4)cc3)[C@H](CO)N12,3.6
CCc1nc(N2[C@H](CO)[C@H](c3ccccc3-c3ccc(F)cc3)[C@@H]2C#N)sc1C,1.8
O=C(C[C@@H]1CC[C@@H]2[C@H](COC[C@H](O)CN2S(=O)(=O)c2ccccc2)O1)NCCN1CCCC1,-2.9
C[C@@H]1CN([C@H](C)CO)C(=O)c2cc(NS(=O)(=O)c3ccc(Cl)cc3)ccc2O[C@@H](C)CCCCO[C@H]1CN(C)S(=O)(=O)c1ccccc1,-11
O=C(NC[C@H]1CC[C@H]2[C@H](CN2C(=O)Cc2ccncc2)O1)C1CCOCC1,-3.1
COc1ccc2c3c(n(C)c2c1)[C@@H](CO)N(CC1CC1)CC31CCN(C(=O)NC2CCCC2)CC1,0.9
CO[C@H]1CN(C)C(=O)c2ccc(NC(=O)C3CC3)cc2OC[C@@H](C)N(C(C)=O)C[C@H]1C,0.1
CCCNC(=O)N1[C@@H]2CNC[C@H]1C2c1ccc(-c2cccnc2)cc1 (some centres not stated),2.3&-7.1
CN(C[C@H]1N[C@H](CO)[C@@H]1c1ccc(-c2cccnc2)cc1)C(=O)NC1CCCC1,-0.2
CS(=O)(=O)N1CC(=O)N2[C@@H](CO)[C@@H](c3ccc(C#CC4CCCC4)cc3)[C@@H]2C1,2.4
CCC(=O)N1CC(=O)N2[C@H](C1)[C@H](c1ccc(-c3ccccc3F)cc1)[C@@H]2CO,-2.6
O=C(C[C@H]1CC[C@@H]2[C@H](COC[C@@H](O)CN2Cc2cc(F)cc(F)c2)O1)NC1CCC1,0.4
O=C(C[C@H]1C[C@H]2c3cc(NC(=O)c4cccnc4)ccc3O[C@H]2[C@@H](CO)O1)NCc1ccccc1F,0.6
COc1ccc(S(=O)(=O)Nc2ccc3c(c2)OC[C@@H](C)N(C(=O)NC(C)C)C[C@@H](C)[C@H](OC)CN(C)C3=O)cc1,-2.2
C[C@H](CO)N1C[C@H](C)[C@@H](CN(C)S(C)(=O)=O)OCc2ccccc2-c2ccccc2C1=O,-4.0

# High-throughput results (PubChem BioAssay)
